Assay outcomes deposited in PubChem by Broad Institute.
Tg IFNy HTS – T. gondii growth inhibition under IFN-gamma; Toxoplasma gondii growth in IFN-gamma-treated host cells; active compounds read low; reference of the scale not given here; activity change, negative = inhibition, %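 (about 20 µM by stock and volumes)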; 69,000 tested, 3.8% active;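 active means below -70%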;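 further: host cells are HeLa cells infected with Toxoplasma gondii; parasite growth read as luciferase light; one replicate is shown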
Starred values were filed as active, the others as inactive; i = inactive; & = joins results of further samples.

SMILES	Tg IFNy HTS
CN1C(=O)c2cc(NC(=O)Cc3cccs3)ccc2OC[C@@H]2O[C@H](CC(=O)NCc3ccc(-c4ccccc4)cc3)CC[C@H]21	7
COc1cccc(-c2[nH]ncc2CNC(Cc2cc(=O)[nH]c(C)n2)c2ccc(Cl)cc2)c1 (stereo unspecified)	0
O=C(O)[C@@H]1[C@@H](CO)[C@@H]2Cn3c(ccc(C4=CCCCC4)c3=O)[C@@H]2N1Cc1ccc2c(c1)OCO2	-1
CN1CCOCC2(CCCN(C(=O)c3nn(C)c4ccccc34)C2)C1 (stereo unspecified)	-9
Cc1nc2c(C(=O)N3CCc4onc(-c5ccccc5)c4C3)cccc2[nH]1	8
CCC(CC)C(=O)N1CCC2(CC1)Nc1ccc(Cl)cc1-n1cccc12	-3
CC(=O)N1CCC2(CC1)CCN(C(=O)[C@H]1CC[C@@H](N)C1)C2	5
CC1CCN(S(=O)(=O)c2ccc3c(ccc(=O)n3CC(=O)N3CCCCCC3)c2)CC1	-1
CCc1cccc(NC(=O)CCC(=O)NC(C)c2ncn[nH]2)c1 (stereo unspecified)	1
Cc1noc(C)c1S(=O)(=O)N(C)C[C@H]1OCCCC[C@@H](C)Oc2ccc(NC(=O)CCC(F)(F)F)cc2C(=O)N([C@@H](C)CO)C[C@@H]1C	-29
O=C(c1cccs1)c1coc2ccc(O)c(CN3CCOCC3)c12	9
C=CC(=O)Nc1cccc(Oc2nc(Nc3ccc(N4CCN(C)CC4)cc3OC)ncc2Cl)c1	-67
CCc1ccc(-c2noc(-c3nnn(Cc4nc(-c5ccccc5)oc4C)c3C)n2)cc1	4
CCOc1ncccc1C(=O)NC(c1ccccc1)c1ccncc1 (stereo unspecified)	-18
CSc1nc(-c2ccco2)nn1C(=O)c1ccc(F)cc1	0
COc1cc(C(=O)NCCc2sc(-c3ccc(C)cc3)nc2C)cc(OC)c1OC	i
COc1ccc(C(=O)NCCc2sc(-c3ccc(OC)c(OC)c3)nc2C)cc1OC	i
C[C@@H]1CCCCO[C@@H](CN(C)C(=O)CCCN(C)C)[C@H](C)CN([C@@H](C)CO)C(=O)c2cc(NS(=O)(=O)c3ccc(Cl)cc3)ccc2O1	-27
O=C1CCC2(CCCO2)CCN1Cc1noc(-c2ccccc2)n1 (stereo unspecified)	3
O=C(O)C1CCN(C(=O)c2csc(-c3ccc4c(c3)CCO4)n2)CC1	108
C[C@@H]1CN([C@@H](C)CO)C(=O)c2ccccc2-c2ccccc2CO[C@@H]1CN(C)C(=O)[C@@H]1CCCN1C	-6
O=C(CSc1nnc(-c2ccncc2)s1)Nc1ccc(Cl)c(C(=O)O)c1	14
c1ccc2c(c1)CC1(CCCC1)n1c-2cc2nc3ccccc3nc21	-63
COCCC1CCCCN1C(=O)CN1C(=O)NC(=O)C1(C)C (stereo unspecified)	-6
Cn1cc(C(CNC(=O)Nc2cccc(Cl)c2)c2cccnc2)c2ccccc21 (stereo unspecified)	i
CCC(=O)Nc1cc(-c2nn(C)c(=O)c3ccccc23)ccc1N1CCCCC1	-50
CCOCC(=O)N1CCC(c2ccn(CC(=O)N(C)C)n2)c2ccccc21 (stereo unspecified)	2
COCC1CN(C(=O)COc2ccccc2)Cc2ncn(C)c21 (stereo unspecified)	-3
CCCN(CCC)CC1CCCCN1CCNC(=O)N1c2ccccc2C(=O)Nc2cccnc21 (stereo unspecified)	12
CCCC(C(=O)NCCc1nc2ccccc2n1C)n1nc(C)cc1C (stereo unspecified)	5

Sorted by SMILES length (ascending): some entries from above.
SMILES	Tg IFNy HTS
CCCC(C(=O)NCCc1nc2ccccc2n1C)n1nc(C)cc1C (stereo unspecified)	5
c1ccc2c(c1)CC1(CCCC1)n1c-2cc2nc3ccccc3nc21	-63
CCOCC(=O)N1CCC(c2ccn(CC(=O)N(C)C)n2)c2ccccc21 (stereo unspecified)	2
Cn1cc(C(CNC(=O)Nc2cccc(Cl)c2)c2cccnc2)c2ccccc21 (stereo unspecified)	i
COc1cc(C(=O)NCCc2sc(-c3ccc(C)cc3)nc2C)cc(OC)c1OC	i
C[C@@H]1CCCCO[C@@H](CN(C)C(=O)CCCN(C)C)[C@H](C)CN([C@@H](C)CO)C(=O)c2cc(NS(=O)(=O)c3ccc(Cl)cc3)ccc2O1	-27

Filtered by structure: the compounds so far containing an NH in an aromatic ring
SMILES	Tg IFNy HTS
COc1cccc(-c2[nH]ncc2CNC(Cc2cc(=O)[nH]c(C)n2)c2ccc(Cl)cc2)c1 (stereo unspecified)	0
Cc1nc2c(C(=O)N3CCc4onc(-c5ccccc5)c4C3)cccc2[nH]1	8
CCc1cccc(NC(=O)CCC(=O)NC(C)c2ncn[nH]2)c1 (stereo unspecified)	1

The results go on.
SMILES	Tg IFNy HTS
CO[C@H]1CC[C@@H]2CCOc3c(C#N)cccc3C(=O)N(C)C[C@@H](OC)[C@H](C)C(=O)N(C)C[C@@H]1O2	-22
Cc1cccc(-c2noc(CCC(=O)N3CCCN4CCC[C@H]4C3)n2)c1	18
Cc1nn(-c2ccc(F)cc2)c(C)c1C(=O)N1CC(c2ccncc2)C1	-4
CN1CCN(c2ncccc2CNC(=O)c2cccc(-c3cn[nH]c3)c2)CC1	1
CC(=O)N1CCC2C(C[C@@H](CN3CCCC3)N2c2nccs2)C1 (stereo partly specified)	6
COCCCNC(=O)Cn1c(=O)c(S(=O)(=O)c2ccccc2)cc2cc(C)ccc21	-7
CCC1CCC(C(=O)NCc2nc(CCc3ccccc3)n[nH]2)CC1 (stereo unspecified)	-8
O=C(CN1CCCC(OCc2ccccn2)C1)Nc1nc2ccccc2[nH]1 (stereo unspecified)	13
COc1ccc(-c2nc(NCCCN3CCOCC3)c3ccccc3n2)cc1	-29
CCCCc1cn(CC2CCN(C(=O)c3ccco3)CC2)nn1	3
C=C(C)C[C@@H]1CCn2nncc2COCCNC1=O	-9
Cc1cc(=O)n2[nH]c(C3CCCN3C(=O)c3ccccn3)cc2n1 (stereo unspecified)	-2
O=C(NCCc1csc(-c2ccccc2)n1)c1ccc(Br)o1	265
c1cc(CN2CCC(c3ccnc(-c4ccncc4)c3)C2)n(-c2nccs2)c1 (stereo unspecified)	-50
O=C(NCc1ccccc1)Nc1ccc(-c2nc(-c3ccccc3)co2)cc1	42
Clc1ccc(-c2cc3ncccc3c(N3CCOCC3)n2)cc1	26
COc1cccc(-c2ccc3c(c2)CCCN3C(C)=O)c1OC	36
Cc1ccc(S(=O)(=O)NCC[C@@H]2CC[C@H](NC(=O)c3cccnc3)[C@H](CO)O2)cc1	-3
CC1=CC(C)(C)N(C(=O)Nc2ccccc2)c2cc(C)ccc21	20
COCC(=O)N1C[C@@H]2c3nc(NCC4CC4)ncc3CS(=O)(=O)[C@H]2C1	-1
O=C([C@H]1C[C@H]2CN(c3ncccn3)C[C@H]1O2)N1CCOCC1	12
CCc1nc(C)sc1C(=O)N1C[C@@H]2C3CCC(CC3)[C@@H]2C1	7
CC1CN(C(=O)Nc2cccc(F)c2)CCC12CCC(C(=O)N(C)C)O2 (stereo unspecified)	12
CCC(=O)N1[C@H](CO)[C@H](c2ccccc2-c2ccccc2)[C@@H]1C#N	-36
O=C(c1cncc(-c2cc3ccccc3o2)n1)N1CCOCC1	-6
CC(Cn1cccn1)C(=O)N1CCOc2c(O)cc(-c3cccnc3)cc2C1 (stereo unspecified)	-2
Cc1cc(CN(C)C(=O)c2sc3ncnc(NC[C@H]4C[C@@H]5C=C[C@H]4C5)c3c2C)on1	-19
C[C@H](CO)N1C[C@H](C)[C@H](CN(C)Cc2cccnc2)OCc2ccccc2-c2ccccc2C1=O	14
CN(CCCc1ccco1)S(=O)(=O)c1ccc2[nH]c(=O)ccc2c1	11
CCc1ccccc1NC(=O)N1CCC2(CC1)Nc1cc(OC)ccc1-n1cccc12	137
COc1cc2c(c(OC)c1OC)C(=O)CC2	73
C=CCN1CCN(C)C(=O)C12CCN(C(=O)c1cccn1C)C2 (stereo unspecified)	32
O=C(O)C1=CCCN(CCON=C(c2ccccc2)c2ccccc2)C1	11&20
COc1cccc(NC(=O)c2c3c(N4CCN(C)CC4)ncnc3n3ccccc23)c1	-14
Cc1cccc(CN2CCC(c3nn(C)c(=O)n3-c3ccccc3)CC2)c1O	12
O=C(NCCc1csc(-c2ccc(C(F)(F)F)cc2)n1)C(=O)Nc1ccc2c(c1)OCO2	72
Cc1ccc(-c2coc(-c3ccc(NC(=O)Nc4ccc(C)c(F)c4)cc3)n2)c(C)c1	-43
CC(C)(C(=O)N1CCC(CC(=O)O)CC1)n1cncn1	3
Cn1c(-c2ccc(F)cc2)cnc1NC(=O)CCc1ccc2c(c1)n(C)c(=O)n2C	3
CCOC[C@@H]1CCC2C(CCN2C(=O)c2ccc3c(c2)OCO3)O1 (stereo partly specified)	46
CC(C)(C)c1ccc(-c2nnnn2Cc2c(Cl)cccc2Cl)cc1	-64
O=c1c(O)cccc2cc(O)c(O)c(O)c12	12
Cc1nn(Cc2nc(-c3ccc(NC(=O)c4ccc(F)cc4F)cc3)oc2C)c(C)c1C	-101*
O=C1CC(CSc2nnc(-c3ccc(Cl)cc3)n2-c2ccccc2)=NN1	-42
CCN1CCC2(CC1)OC(=O)C(C)=C2C(=O)N1CCC(N2CCCCC2)CC1	52

Given comma-delimited: 4 of the compounds above.
SMILES,Tg IFNy HTS
O=C(O)C1=CCCN(CCON=C(c2ccccc2)c2ccccc2)C1,11&20
COc1cccc(NC(=O)c2c3c(N4CCN(C)CC4)ncnc3n3ccccc23)c1,-14
Cc1cccc(CN2CCC(c3nn(C)c(=O)n3-c3ccccc3)CC2)c1O,12
O=C(NCCc1csc(-c2ccc(C(F)(F)F)cc2)n1)C(=O)Nc1ccc2c(c1)OCO2,72

Next part.
SMILES	Tg IFNy HTS
CCN1C(=O)CCC2C1CCN2C(=O)c1ccc2[nH]ccc2c1 (stereo unspecified)	0
CN(C)CCO[C@@H]1CC[C@@H]2[C@H]1OCCN2C(=O)CC1C=CCC1 (stereo partly specified)	7
CCN(C[C@H]1N[C@@H](CO)[C@@H]1c1ccccc1)C(=O)c1ccncc1	9
Cc1ccc(NC(=O)CN2C(=O)CCc3cc(S(=O)(=O)N4CCCCC4C)ccc32)cc1 (stereo unspecified)	3
COCCN1C(=O)CC[C@H]2[C@H]1CCN2C(=O)c1cccc(C)n1	-6
CCOC(=O)c1c(C)n(C)c2ccc(OCC)cc12	70
O=C(c1ccc(-c2ccoc2)nc1)N1CCC(Oc2cccnc2)CC1	0
CN1C[C@@H]2[C@H](c3ccccc31)[C@H](CO)N2Cc1ccccc1Cl	-2
COc1ccc(CN(C)CCN2CCCCC2)cc1Cc1c(C)noc1C	16
Cc1cc(C)nc(Cn2nc(C3CCNCC3)n(Cc3ccccc3)c2=O)n1	-16
CC(C)NC(=O)N1[C@H](CO)[C@H]2c3ccccc3NC[C@H]21	1
CCNC(=O)[C@@H]1[C@@H](CO)[C@@H]2Cn3c(ccc(/C=C/c4ccccc4)c3=O)[C@H]1N2C(=O)c1ccncc1	4
CCc1nnc(NC(=O)CSc2nc3cccnc3n2Cc2ccccc2)s1	-83*
c1ccc2c3c([nH]c2c1)CCN(c1cc(N2CCOCC2)ncn1)C3	193
CC(C)n1nc(Cn2cccn2)c2c1CN(C)C2	-14
Cc1cccnc1CN1CCN(Cc2c(C)nn(CCO)c2C)CC1	2
CCc1nc(C)c(C(=O)N2CCC(O)(c3cccnc3)CC2)s1	-3
CCOC(=O)C1CCN(Cc2cccc(NC(=O)c3cccs3)c2)CC1	-67
Cc1ccc(-c2nc(C)c(CCNC(=O)C(=O)Nc3cccc(C)c3C)s2)cc1	14
CC(C)CN1C(=O)CCc2cc(NS(=O)(=O)c3ccccc3Cl)ccc21	9
COc1ccccc1N1CCN(CC2CN3C(=O)N(C)c4ccccc4C3=N2)CC1 (stereo unspecified)	3
O=C(O)[C@H](O)[C@@H](O)[C@H](O[C@@H]1O[C@H](CO)[C@H](O)[C@H](O)[C@H]1O)[C@H](O)CO	-8
CCSc1ncc(C2CC(=O)Nc3c2c(C)nn3Cc2ccccc2)cn1 (stereo unspecified)	-8
Cc1ccc2oc(C(=O)NCc3cc(-c4cccnc4)no3)cc2c1	-1
CN1CCOCC12CCN(C(=O)c1cscn1)CC2	11
O=C1CC(c2cnn3cccnc23)c2cnn(Cc3cccnc3)c2N1 (stereo unspecified)	6
CO[C@H]1CN(C)C(=O)c2cc(NC(=O)c3cccc(F)c3)ccc2OC[C@H](C)N(C)C[C@H]1C	-38
Cc1sc(NC(=O)CN(Cc2ccccc2)C(=O)c2ccccc2)c(C(N)=O)c1C	4
CN1CCC2(CC1)CN(C(=O)CCC(=O)Nc1cccc(F)c1)CCN2C	0
O=C(CCCCCCNC(=O)c1cnc(N(c2ccccc2)c2ccccc2)nc1)NO	-60
Cc1nc(-c2cccc(F)c2)sc1CCNC(=O)c1ccc(F)cc1	-1
CCS(=O)(=O)NCC[C@H]1CC[C@@H](NS(=O)(=O)c2ccccc2C)[C@H](CO)O1	-7
COc1ccc(-n2cccn2)c(CN(C)Cc2noc(C)n2)c1	-2
COCCN1C2(CCN(C(=O)NC3CCCC3)C2)c2ccccc2S1(=O)=O (stereo unspecified)	-4
Cc1nccn1-c1ccccc1CNC(=O)c1cn[nH]n1	20
Cn1c(C(F)(F)F)nc2ccccc21	-10
CCC(C(=O)N1CCC[C@@H]1C(=O)NCCc1csc(-c2ccccc2)n1)c1ccccc1 (stereo partly specified)	10
O=C(NCCc1csc(-c2cccc(F)c2)n1)C(=O)Nc1ccc(F)cc1	-37
C[C@H](NC(=O)c1ccc(Cl)cc1Cl)C(=O)NC1CCCCC1	62
C=CCN(Cc1ccc(-n2cccn2)cc1)Cc1ccco1	-3
Cc1ccc(NC(=O)C(=O)NCCc2sc(-c3ccccc3)nc2C)cc1	-3

The list is partial; count on the stated rates, not on these rows.
